Screening data: PubChem, ICCB-Longwood Screening Facility, Harvard Medical School
HCMV NEC inh: inhibitors of HCMV UL50-UL53 interaction, biochemical, HTRF. normalized percent inhibition. inhibition, % (concentration not given with the values). 190,000 tested, 0.15% active. AID 1918969, 2023;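 active means both replicates at 50% or more, plus weaker picks with an unusually low signal ratio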;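 further: stock transfer was 100 nL into about 20 µL; 0% = negative control wells and 100% = wells with untagged competitor protein; inactives centre near -12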
GIV Gai3 FP: inhibitors of GIV peptide binding to Galpha-i3, primary screen, biochemical, fluorescence polarization, FITC-GIV GBA peptide, rat Galphai3. Guanine nucleotide-binding protein G(i) subunit alpha-3 (Rattus norvegicus), P08753. 90 min; hits give low values; scaled: aluminum fluoride 0%, vehicle 100%. percent of control (FP), % (test concentration not listed). 210,000 tested, 0.42% active. AID 1224905, 2016;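 active means replicate mean at 85% of control or lower, very high polarization wells dropped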;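 further: wells of about 15 µL received 100 nL stock; the first replicate is given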
Target sequence (P08753 whole entry, looked up): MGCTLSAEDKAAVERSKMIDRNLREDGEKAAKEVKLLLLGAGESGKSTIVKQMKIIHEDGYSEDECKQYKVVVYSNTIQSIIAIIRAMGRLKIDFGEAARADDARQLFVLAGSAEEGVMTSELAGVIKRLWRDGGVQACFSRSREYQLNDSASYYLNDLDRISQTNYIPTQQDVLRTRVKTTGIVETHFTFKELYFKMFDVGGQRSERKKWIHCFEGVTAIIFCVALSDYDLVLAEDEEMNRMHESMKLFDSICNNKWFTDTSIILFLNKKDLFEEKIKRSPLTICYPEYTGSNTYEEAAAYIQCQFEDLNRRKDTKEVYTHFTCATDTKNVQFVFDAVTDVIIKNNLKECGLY
Sa growth 42C: S. aureus growth inhibition at 42 and 30 °C, primary screen, LtaS inhibitor project, RN4220, two temperatures; OD600, 20 h, 42 °C; hits give low values; relative growth, % (test concentration not listed); 170,000 tested, 0.53% active; AID 720641, 2013;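 active means growth at 42 °C up to 50% and 20 or more points under that at 30 °C, or under 10% at both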;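 further: 300 nL library stock went into each well; scaled to the means of positive and negative controls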
Sa growth 42C second temp: also measured in Sa growth 42C; calls as there; relative growth, %; measured here: growth at 30 °C;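 optical density after 20 h as mean of two plates; 100% = untreated growth and lower means inhibition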
* = called active by the depositor; nt = not tested or not shown; & = joins results of further samples.

Value order: Sa growth 42C, Sa growth 42C second temp, HCMV NEC inh, GIV Gai3 FP
CC[n+]1c(C)csc1Nc1ccc(N2CC(C)OC(C)C2)cc1 (stereo unspecified)
  90&101, 83&97, -18&-1, 102&101
CS(=O)(=O)c1ccc(Cl)c(C(=O)OCc2nc3ccccc3s2)c1
  89, 92, -14, nt
COc1ccc(C2=Nc3ccc(C)cc3NC(c3ccc(Cl)cc3)=N2)cc1
  101, 94, -14, 95
O=C(O)Cc1ccc2c(c1)CCCC2
  129, 105, 12, 101
CCOC(=O)CSc1nnc(-c2ccccc2NC(=O)c2ccccc2)o1
  79, 108, 11, 100
O=C(CSc1ccc(-c2cccs2)nn1)c1cccs1
  96, 72, -44, 97
O=C(NCC12CC3CC(CC(C3)C1)C2)c1cc2nc(-c3ccc(Cl)cc3)cc(C(F)(F)F)n2n1
  113, 88, -4, 108
CCCCN(C1=NC2CS(=O)(=O)CC2S1)c1ccc(Cl)cc1 (stereo unspecified)
  104, 87, nt, 98
CC(C)(C)n1nc(-c2ccc(F)cc2)c2c(N)ncnc21
  nt, nt, -7, 105
COc1ccc(C2C(C(=O)NCC3CCCO3)c3ccccc3C(=O)N2C)cc1 (stereo unspecified)
  98, 76, nt, 99
CCCCCCC(=O)Nc1cc2nc3[nH]c(=O)n(C)c(=O)c3nc2cc1C
  nt, nt, -64, 100
O=C(CN1C(=O)c2ccccc2C1=O)c1ccc(O)cc1O
  89, 83, -51, nt
CS(=O)(=O)Nc1ccc2c(c1)COC2=O
  92, 88, -17, 101
COc1cc(-c2cc(OC)c(C)cc2OC)c(OC)cc1C
  101, 82, -48, 100
CC(c1ccco1)N(C(=O)c1ccc(C#N)cc1)c1ccccn1 (stereo unspecified)
  89, 94, -4, nt
CN(C)C(CN)c1ccccc1 (stereo unspecified)
  81, 75, -9, nt
CCCCOC(=O)/C(C#N)=C/c1ccc(-c2ccc(Br)cc2)o1
  97, 93, -25, 105
c1ccc(NCc2ccc3c(c2)OCO3)nc1
  98, 85, nt, 100
Cc1ccc(Cn2c(=O)n(CCCCC(=O)NCCc3ccc(Cl)cc3)c(=O)c3ccccc32)cc1
  88, 94, -7, 105
O=C(Nc1ccc2c(c1)OCCO2)Nc1ccc2[nH]c(=O)oc2c1
  nt, nt, -24, 101

A stretch taken from the entries so far:
Value order: Sa growth 42C, Sa growth 42C second temp, HCMV NEC inh, GIV Gai3 FP
CCCCOC(=O)/C(C#N)=C/c1ccc(-c2ccc(Br)cc2)o1
  97, 93, -25, 105
c1ccc(NCc2ccc3c(c2)OCO3)nc1
  98, 85, nt, 100
Cc1ccc(Cn2c(=O)n(CCCCC(=O)NCCc3ccc(Cl)cc3)c(=O)c3ccccc32)cc1
  88, 94, -7, 105
O=C(Nc1ccc2c(c1)OCCO2)Nc1ccc2[nH]c(=O)oc2c1
  nt, nt, -24, 101

Remaining list, next part:
Value order: Sa growth 42C, Sa growth 42C second temp, HCMV NEC inh, GIV Gai3 FP
Cc1sc(NC(=O)c2ccccc2)c(C(Nc2ccccn2)c2ccsc2)c1C (stereo unspecified)
  nt, nt, 0, 99
COc1ccc(NC(=O)c2cccc(Br)c2)cn1
  90, 88, -9, nt
COc1ccc(C2CC(=O)C3=C(C2)Nc2onc(C)c2C3c2ccc(OC)cc2)cc1 (stereo unspecified)
  nt, nt, -2, 106
COc1ccccc1/C=C(/C(=O)O)c1ccccc1
  87, 104, -7, nt
Cc1ccc(/C=C/c2onc(C)c2S(=O)(=O)N2CCC(C(=O)Nc3ccc(OC(F)(F)F)cc3)CC2)cc1
  100, 100, nt, 99
Cc1ccc(CNC(=O)C2CNc3cc(C)ccc3O2)cc1 (stereo unspecified)
  118, 88, nt, 99
O=C(c1csc(S(=O)(=O)N2CCN(c3ccc(Cl)cc3)CC2)c1)N1CCCC1
  nt, nt, -36, 107
CCn1c2ccccc2c2nnc(N3CCc4ccccc4C3)nc21
  87, 84, nt, 102
Clc1ccc(Cc2nn3c(-c4ccccn4)nnc3s2)cc1
  nt, nt, -20, 107
CCCC(=O)Nc1cc(C)nn1-c1ncnc2c1cnn2-c1ccc(Cl)cc1
  nt, nt, -29, 105
Cc1cccc(NC(=O)Nc2ccc3c(c2)oc(=O)n3C)c1
  nt, nt, -17, 107
CCC(C(=O)OC)n1cnc2c(cnn2-c2ccc(F)cc2)c1=O (stereo unspecified)
  106, 87, -7, 107
COc1cccc(NC(=O)COC(=O)CC23CC4CC(CC(C4)C2)C3)c1
  99, 88, -30, nt
O=C(/C=C/c1c(Cl)nc2ccccn12)N1CCCCC1
  83, 91, -50, nt
c1coc(-c2nnc(-c3cc4ccccc4o3)o2)c1
  nt, nt, -23, 102
Cc1cc(-c2noc(-c3cccc(F)c3)n2)c2ccccc2n1
  99, 91, 0, 109
O=C(NCC(c1ccccc1Cl)N1CCCC1)c1cc(-c2ccc3c(c2)OCCO3)on1 (stereo unspecified)
  nt, nt, -27, 109
O=S(=O)(Nc1ccc2c(c1)OCCO2)c1cnc[nH]1
  112, 91, 1, 94
N#C/C(=C\c1ccc(Cl)cc1)c1nc2ccccc2[nH]1
  100, 94, -17, 119
Cc1cc(C)cc(Nc2cc(C(=O)NCc3ccccc3)c3ccccc3n2)c1
  108, 108, 1, 104
COC(=O)COc1cc(C)ccc1C
  95, 95, 5, nt
CC(=O)OCC12COC3c4ccccc4OC(C)(CC1C)C3C2C (stereo unspecified)
  110, 87, -5, 99
COc1ccccc1Nc1ncc(C(=O)NCCc2ccc(OC)c(OC)c2)c2ccccc12
  91, 84, nt, 107
NC(=O)c1ccc(CC(=O)c2ccc(Cl)cc2)cc1
  103, 72, -28, 110
CC1CC(OCC(O)C[N+]2(C)CCOCC2)CC(C)(C)C1 (stereo unspecified)
  95, 93, -6, nt
CCNS(=O)(=O)c1ccc(NC(=O)Nc2cccc(Cl)c2Cl)cc1
  110, 100, -16, 108
S=c1cc(-c2ccc(Cl)cc2)ss1
  98, 85, -11, 103
Cc1ccc(NS(=O)(=O)c2ccc3c(c2)CCN3C(=O)C2CC2)c(C)c1
  100, 90, -22, 105
CCOC(=O)c1nnc2c(-c3ccc(Cl)cc3)c(C)nn2c1N
  92, 93, -4, 107
CC(=O)Nc1c(O)[nH]c2ccccc12
  98, 81, -5, 99
CS(=O)(=O)Nc1ccc(/C(N)=N/O)cc1
  96, 89, -26, 104
COCCn1c(C)cc(/C=C2\C(=O)Nc3cc(Cl)ccc32)c1C
  64, 71, -59, nt
COC(=O)c1sccc1NC(=O)Cn1c(=O)nc(-c2ccccc2)c2cc(Cl)ccc21
  nt, nt, -15, 107
COc1cccc(Nc2nnc(-c3cc4cccc(OC)c4oc3=O)s2)c1
  90, 90, nt, 115
COc1ccc(OCCSc2nnc(C(F)(F)F)n2N)cc1
  91, 97, 8, nt
O=S1(=O)CCC(Cc2nc3ccccc3[nH]2)C1 (stereo unspecified)
  99, 99, -12, nt
CCN(Cc1ccccc1)c1ccc(C(=O)O)cc1NS(=O)(=O)c1ccc(C)cc1C
  nt, nt, -24, 101
O=C1/C(=C/c2ccc(F)c(F)c2)CCC/C1=C\c1ccc(F)c(F)c1
  86, 47, nt, 106
O=S(=O)(/N=C/c1cccnc1)c1cccs1
  95, 97, -8, 109
CCc1nn2c(=O)cc(CSc3nnc(Cc4c(C)nc5c(C)cccn5c4=O)n3C)nc2s1
  nt, nt, -36, 106
Cc1ccc(-n2nc3c(c2NC(=O)Cc2ccccc2)CSC3)c(C)c1
  97, 61, nt, 106
Cc1ccc(CCn2c(C)c(C)c3ccccc32)cn1
  103, 75, nt, 102
CSc1cccc(NS(=O)(=O)c2ccc(-n3cccn3)cc2)c1
  93, 93, nt, 103
O=C(NCCc1ccc(Cl)cc1)c1ccc(CS(=O)(=O)Cc2ccc(F)cc2)o1
  113, 92, nt, 100
O=C(NCCc1ccccc1)c1ccc(CSc2nc3ccncc3n2Cc2ccccc2)cc1
  118, 106, -25, 105
CN(C)CC(=O)Nc1ccc(Cl)cc1
  104, 78, -3, 104
O=C(NC1CC1)c1ccc2c(c1)N(Cc1ccccc1)C(=O)CS2
  96, 81, nt, 102
COc1ccc(Nc2ncc3c(n2)CCN(Cc2cc(Br)cs2)C3)c(OC)c1
  89, 92, nt, 103
Cc1cccc(Oc2ccc(N3C(=O)C4C5C=CC(C5)C4(C)C3=O)cc2)c1C (stereo unspecified)
  116, 107, nt, 97
CCNC(=S)Nc1ccc(N2CCCCC2)cc1
  97, 98, -1, nt

The listing continues.
Value order: Sa growth 42C, Sa growth 42C second temp, HCMV NEC inh, GIV Gai3 FP
CC1CCN(C(=O)CN2C(=O)c3ccccc3S2(=O)=O)CC1
  78, 79, -22, 106
CC(=O)N1CCN(C(=O)COc2ccc(C#N)cc2)CC1
  96, 104, 22, nt
COc1ccc(C2N3CC(C)(C)CN23)cc1OC (stereo unspecified)
  95, 92, -10&-8, 100&100
CCn1c(=O)c(SCC(=O)OC)nc2cccnc21
  nt, nt, -117, 100
O=C(O)CC1(CC(=O)Nc2ccc(Br)cc2)CCCC1
  194, 95, 3, nt
Cc1ccc(S(=O)(=O)N2CCN(C/C=C/c3ccccc3)CC2)c(C)c1C
  115, 91, nt, 99
Cn1c(=O)c2sccc2n2c(SCc3ccccc3)nnc12
  nt, nt, -35, 104
CCOc1ccc(CNC(=O)c2[nH]c3ccccc3c2Sc2ccc(C)cc2)cc1
  88, 86, 2, 105
CC1CCCN(Cc2cn3c(-c4cccc(Br)c4)nnc3s2)C1 (stereo unspecified)
  112&103, 82&87, 8, 102&107&107
Cc1ccc(OC(C)C(=O)N(C)c2ccccc2)cc1 (stereo unspecified)
  110, 99, -4, 99
c1cc2c(cc1C1CCCN1)OCCCO2 (stereo unspecified)
  89, 90, -14, nt
COc1ccccc1NC(=O)C1CC(=O)NC(=Nc2ccc(C)cc2)S1 (stereo unspecified)
  98, 103, 12, 106
Cc1ccc(-n2nc(C)c(C(=O)NCCCN3CCN(c4ccc(F)cc4)CC3)c2-n2cccc2)cc1
  79, 77, nt, 96
COc1ccccc1C(=O)Nc1cnn(Cc2ccccc2C)c1
  84, 104, -1, 106
CC(=O)c1ccc(N2CCN(S(=O)(=O)c3ccc(-c4coc(C)n4)cc3)CC2)cc1
  110, 74, nt, 106
CCOc1ccccc1CNC(=O)c1cc2c(=O)n(Cc3cccnc3)ccc2nc1C
  95, 86, nt, 96
COc1ccc(-c2ccc(=O)[nH]n2)cc1OC
  98, 89, -64&-67, 102&105
CCOC(=O)c1sc(NC(=O)CSc2nnc(Cn3nnc4ccccc43)n2C)nc1C
  108, 99, -7, 105
CCc1c2c(nn1-c1cc(Cl)ccc1OC)CCCC2=O
  100, 82, -12, nt
COc1ccccc1-c1c(C)nn2c(SCC(=O)NC3CCCC3)cc(C)nc12
  nt, nt, 15, 105
COCCNS(=O)(=O)c1ccc2c(c1)Cc1cc(S(=O)(=O)NCCOC)ccc1-2
  109, 99, -10, 106
COc1cccc(NC2=NCCCCC2)c1
  110, 79, -19, nt
Cc1nn(C(=O)C(C)(C)C)c(C)c1S(=O)(=O)N1CCCC1
  nt, nt, -12, 102
CNC(=S)N1CCCC1C(=O)Nc1ccc(Cl)cc1 (stereo unspecified)
  99, 99, -9, 104
CSc1nc2cc(C)nn2c(N)c1C#N
  111, 94, -4, 104
Cc1ccc(NC(=O)N2CCC(CN3CCCCC3)CC2)cc1C
  nt, nt, -5, 100
Cn1cc(Br)c(NS(=O)(=O)c2ccccc2C(F)(F)F)n1
  116, 85, -14, 96
Cc1ccc(C2C=C(c3ccc(Cl)cc3)Nc3nc(NC(=O)CCC(=O)O)nn32)cc1 (stereo unspecified)
  112, 87, nt, 88
O=C(CSc1ncn(-c2ccccc2)n1)Nc1ccc(N2CCOCC2)cc1
  93, 97, -35, 104
O=S(=O)(c1ccc(-n2cccn2)cc1)N1CCn2c1nc1ccccc12
  84, 89, -33, 110
COc1cc2c(cc1OC)-c1n[nH]c(=S)n1C(C)(C)C2
  98, 62, -8, 105

In the list so far, these contain two or more sulfur atoms:
Value order: Sa growth 42C, Sa growth 42C second temp, HCMV NEC inh, GIV Gai3 FP
CS(=O)(=O)c1ccc(Cl)c(C(=O)OCc2nc3ccccc3s2)c1
  89, 92, -14, nt
O=C(CSc1ccc(-c2cccs2)nn1)c1cccs1
  96, 72, -44, 97
CCCCN(C1=NC2CS(=O)(=O)CC2S1)c1ccc(Cl)cc1 (stereo unspecified)
  104, 87, nt, 98
Cc1sc(NC(=O)c2ccccc2)c(C(Nc2ccccn2)c2ccsc2)c1C (stereo unspecified)
  nt, nt, 0, 99
O=C(c1csc(S(=O)(=O)N2CCN(c3ccc(Cl)cc3)CC2)c1)N1CCCC1
  nt, nt, -36, 107
S=c1cc(-c2ccc(Cl)cc2)ss1
  98, 85, -11, 103
O=S(=O)(/N=C/c1cccnc1)c1cccs1
  95, 97, -8, 109
CCc1nn2c(=O)cc(CSc3nnc(Cc4c(C)nc5c(C)cccn5c4=O)n3C)nc2s1
  nt, nt, -36, 106
CSc1cccc(NS(=O)(=O)c2ccc(-n3cccn3)cc2)c1
  93, 93, nt, 103
Cn1c(=O)c2sccc2n2c(SCc3ccccc3)nnc12
  nt, nt, -35, 104
CCOC(=O)c1sc(NC(=O)CSc2nnc(Cn3nnc4ccccc43)n2C)nc1C
  108, 99, -7, 105
COCCNS(=O)(=O)c1ccc2c(c1)Cc1cc(S(=O)(=O)NCCOC)ccc1-2
  109, 99, -10, 106
